Screening data (PubChem BioAssay)
ugtP null kill = kills S. aureus RN4220 lacking UgtP; growth inhibition, % (test concentration not listed); AID 1259309; 330,000 tested, 0.54% active; S. aureus RN4220 ugtP deletion, OD600 growth, 16 h; some inactives read as strong as hits;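 active means z-score under -3 and OD600 up to 0.15 on both plates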;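 further: plate controls were untreated wells for no effect and antibiotic for full effect; wells of about 80 µL received 100 nL stock; the first replicate is given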
PrP UTR inh = inhibition of PrP 5' UTR reporter expression; 340,000 tested, 0.35% active; inhibition, % (no concentration beside the values); cell-based PrP 5' UTR mRNA reporter, plate reader;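 active means every replicate at 50% or more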;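 further: 0 = median of the neutral control wells; tested in H4 reporter cells; numbers are from one replicate; inactives centre near -14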
Mtb hypoxia inh = reduces hypoxia-regulated biosensor signal in M. tuberculosis | M. tuberculosis hypoxia-regulated fluorescent reporter, fluorescence | fluorescence inhibition, % (concentration not given with the values) | 300,000 tested, 0.1% active | AID 1159583;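 active means 35 to 45% if threefold the growth effect, above 45% if 1.5-fold the growth effect; inactive means the rest, general growth blockers included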;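 further: wells of about 50 µL received 100 nL stock; 0% = vehicle wells and 100% = reference inhibitor wells; whole bacteria with a GFP reporter of the hypoxia response; strong numbers were not always called active; many hits fall short of the cut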
Autofluor counter = flagged as autofluorescent in microsphere protease counterscreen | compound autofluorescence counterscreen, microsphere flow cytometry; stronger effect = higher value | fluorescence intensity (no concentration beside the values) | 360,000 tested, 3.1% active;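 active means at least 3 SD above the mean of all compounds, about 16000 in these data; inconclusive means too few beads counted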;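 further: 100 nL of 1 mM stock went into each well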
Sa RN4220 lethal = S. aureus RN4220 growth inhibition; 330,000 tested, 0.33% active; AID 1259311; OD600, 16 h; inhibition, % (no concentration beside the values);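 active means z-score of -3 or lower and OD600 up to 0.18 on both plates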;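 further: plate controls were untreated cells for no effect and reference antibiotic for full effect; stock transfer was 100 nL into about 80 µL; one replicate is shown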
BJeLR viability = BJeLR cell viability loss; BJeLR (HRASV12) viability, CellTiter-Glo ATP luminescence, 48 h; reference of the scale not given here; inhibition, % (test concentration not listed); 300,000 tested, 0.17% active;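 active means replicate mean above 50%; inconclusive means above 50% but judged a plate artefact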;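 further: 50 nL library stock added to about 25 µL; numbers are from one replicate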
Mtb hypoxia inh growth = recorded beside Mtb hypoxia inh, whose call it bears; growth inhibition, %; measured here: M. tuberculosis growth (absorbance);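 0% = vehicle and 100% = reference antibiotic; read after six days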
Numbers without * were called inactive; ? = inconclusive; nt = not tested or not shown.

SMILES | ugtP null kill | PrP UTR inh | Mtb hypoxia inh | Mtb hypoxia inh growth | Autofluor counter | Sa RN4220 lethal | BJeLR viability
COc1cccc(C(=O)Nc2nc(-c3ccc(S(=O)(=O)N4CCOCC4)cc3)cs2)c1 | -15 | -14 | nt | nt | 3534 | -13 | 6
c1ccc(-c2cc(-c3ccccc3)ncn2)cc1 | -9 | -37 | -1 | -5 | 4109 | 4.7 | 3
COc1cc(C(=O)N2CCC(NC(=O)C(Cc3ccccc3)NC(C)=O)CC2)cc(OC)c1OC (stereo not given) | 8 | -5 | 5 | -2 | 15794 | 1.7 | -1
Cc1ccc2nc(NC(=O)c3ccc(OCC4CCCO4)cc3)sc2c1 (stereo not given) | -8 | -88 | -20 | -8 | 3065 | 13 | 4
OCCC1CN(Cc2ccon2)CCN1Cc1ccccc1 (stereo not given) | 2 | -23 | 6 | 4 | 4758 | -1.6 | 6
CCOC(=O)c1cc2occc2n1CC(=O)NC1CCCCC1C (stereo not given) | -5 | -10 | 16 | 11 | 12677 | -1.2 | -21
CCCCN(CCCC)C(=O)C[n+]1cccc(/C=N/O)c1 | nt | -25 | nt | nt | 2442 | nt | 2
O=C(NCC(=O)N(Cc1ccco1)C(C(=O)NC1CCCCC1)c1ccncc1)c1cccs1 (stereo not given) | 14 | -11 | -1 | 8 | 4795 | 2.1 | 3
Cc1nc2ccn(Cc3ccccc3)c(=O)c2cc1C(=O)N1CCN(c2ccc(F)cc2)CC1 | 11 | -11 | 12 | 4 | 4476 | 1.8 | 7
COc1ccc(Cl)cc1NC(=O)C(C)OC(=O)Cn1cc(C(F)(F)F)ccc1=O (stereo not given) | -2 | -18 | 27* | 62* | 8759 | 1.5 | nt
CCc1nnc(NS(=O)(=O)c2ccc(N3C(=O)c4ccccc4C3=O)cc2)s1 | 2 | -17 | 10 | 7 | 2197 | 6.8 | 0
C=CCN(CC=C)C(=O)C(=O)c1cc(C)n(-c2ccc([N+](=O)[O-])cc2)c1C | 2 | nt | 1 | -6 | 10948 | 5.4 | -3
CC(C)N(C(=O)CSc1nnc(CN2CCCCCC2=O)n1-c1ccccn1)C(C)C | -2 | 4 | 1 | 11 | 8831 | 0.6 | 7
CCC(C)C(=O)Nc1cc(OC)c(OC)cc1C(=O)O (stereo not given) | -3 | 3 | nt | nt | 2595 | 4.0 | 2
Cc1ccnc(NC(=O)c2cccc(NC(=O)CC3SC(N4CCCCC4)=NC3=O)c2)c1 (stereo not given) | 7 | -17 | 6 | -1 | 8347 | 2.7 | nt
COc1ccc(S(=O)(=O)Cc2ccc(C(=O)O)o2)cc1 | 2 | -1 | 1 | 8 | 3715 | 0.5 | -3
CCCOc1ccc(C(=O)Nc2ccc(Cl)cn2)cc1 | 7 | -33 | nt | nt | 2358 | 2.0 | 6
COc1ccc(NC(=O)CN2CCN(c3ccccc3)CC2)cc1 | 3 | 1 | 10 | 9 | 3868 | 3.2 | -1
CCCOc1ccc(NC2=CC(=O)CC(C)(C)C2)cc1 | 2 | -30 | 6 | 1 | 10438 | 3.1 | -7
O=C(COc1ccccc1)c1cn(CC(=O)N2CCOCC2)c2ccccc12 | -12 | -14 | 0 | 7 | 3994 | -5.0 | -4
CCCCn1c(/C=C/c2ccco2)nc2ccccc21 | -1 | -17 | -1 | 4 | 3462 | 3.4 | -8
Cc1nc(SCc2ccc(F)cc2)c2oc3ccccc3c2n1 | -15 | -19 | nt | nt | 3958 | 10 | -3
O=C1N=C(N2C=CC(=C3C=CNC=C3)C=C2)/C(=C/N=NC(=O)c2ccccc2)S1 | -2 | -4 | 25 | 2 | 5814 | 2.4 | 6
COc1ccc(Cl)cc1C(=O)OCC(=O)NCc1cccs1 | 1 | 3 | 3 | 7 | 3881 | 1.2 | nt
Cc1ccc(N2CC(C(=O)OCC(=O)c3c(N)n(CC(C)C)c(=O)n(C)c3=O)CC2=O)cc1 (stereo not given) | 9 | -18 | -2 | -5 | nt | 4.0 | -19
COc1cc(NC(=O)CN2CCCCC2)c(C)cc1[N+](=O)[O-] | 2 | -19 | -1 | -1 | 2576 | -1.9 | -3
CC(=O)C1=C(C)OC(N)=C(C#N)C1c1cc([N+](=O)[O-])ccc1Cl (stereo not given) | 0 | -15 | -3 | 2 | 4128 | 4.4 | 7
CC(=O)O/N=C(\N)c1cnn2c(C(F)(F)F)cc(C(F)(F)F)nc12 | nt | -11 | nt | nt | 5348 | nt | -4
CCN1C[C@@]2(COC)C3[C@@H](OC)[C@H]4[C@@H]1[C@@]3(C1C[C@H]3[C@H](OC(=O)c5ccccc5)C1[C@]4(OC(C)=O)C[C@H]3OC)[C@@H](OC)C[C@H]2O (stereo not given in full) | 6 | nt | nt | nt | 4208 | 4.8 | -4
Cc1ccc(C)c(S(=O)(=O)NC(Cc2c[nH]c3ccccc23)C(=O)O)c1 (stereo not given) | -2 | -90 | -3 | -3 | 4577 | -3.7 | 0
Cc1ccc(N(C(=O)Cc2cccs2)C(C(=O)NC2CCCC2)c2ccncc2)cc1 (stereo not given) | -1 | -12 | -3 | 1 | 2149 | -2.3 | 3
CC(=O)N1c2ccc(S(=O)(=O)N3CCCCC3)cc2CC1C(=O)Nc1ccc(C)cc1 (stereo not given) | -1 | 5 | 3 | 7 | 5876 | 0.9 | -10
c1ccc(Cn2cnc3ccccc32)cc1 | 0 | -76 | 4 | -4 | 4271 | 2.7 | nt
O=C(Cc1c[nH]c2ccccc12)OCCOC(=O)Cc1c[nH]c2ccccc12 | -13 | -4 | 7 | 9 | 3416 | 11 | -2
COc1ccccc1C(=O)Nc1ccc2c(c1)nc(CCNC(=O)c1ccco1)n2C | 11 | 6 | 3 | -1 | 4465 | -2.4 | -1
CC(=O)c1c(C)[nH]c(C(=O)OCC(=O)Nc2cccnc2Cl)c1C | 2 | -6 | 14 | -2 | 3001 | 1.7 | nt
CCCCOc1ccc(CSCCN=C(N)N)cc1 | 100* | -16 | 4 | -1 | 2010 | 21 | 0
COc1ccc(OC)c(C2C3=C(CCCC3=O)Nc3nnnn32)c1 (stereo not given) | 2 | -7 | 16 | 7 | 2408 | 2.9 | 12
O=C(c1cc(-c2ccc3c(c2)OCO3)on1)N1CCN(c2ccc(F)cc2)CC1 | 0 | nt | 2 | 12 | 12750 | 1.7 | -3
Clc1ccccc1CSc1snnc1-c1ccccc1 | -3 | -33 | 12 | 2 | 20983* | 12 | 2

In a second layout: three of the compounds above.
COc1ccc(OC)c(C2C3=C(CCCC3=O)Nc3nnnn32)c1 (stereo not given)
  ugtP null kill: 2	PrP UTR inh: -7	Mtb hypoxia inh: 16	Mtb hypoxia inh growth: 7	Autofluor counter: 2408	Sa RN4220 lethal: 2.9	BJeLR viability: 12

CC(=O)c1c(C)[nH]c(C(=O)OCC(=O)Nc2cccnc2Cl)c1C
  ugtP null kill: 2	PrP UTR inh: -6	Mtb hypoxia inh: 14	Mtb hypoxia inh growth: -2	Autofluor counter: 3001	Sa RN4220 lethal: 1.7	BJeLR viability: nt

COc1ccccc1C(=O)Nc1ccc2c(c1)nc(CCNC(=O)c1ccco1)n2C
  ugtP null kill: 11	PrP UTR inh: 6	Mtb hypoxia inh: 3	Mtb hypoxia inh growth: -1	Autofluor counter: 4465	Sa RN4220 lethal: -2.4	BJeLR viability: -1

(list continues)
SMILES | ugtP null kill | PrP UTR inh | Mtb hypoxia inh | Mtb hypoxia inh growth | Autofluor counter | Sa RN4220 lethal | BJeLR viability
COc1ccc(Cc2nnc(SCC(=O)c3cccc([N+](=O)[O-])c3)n2C)cc1 | 5 | -22 | -3 | 4 | 5863 | -4.8 | 0
O=C(Nc1cc(S(=O)(=O)N2CCOCC2)ccc1N1CCOCC1)c1ccc(S(=O)(=O)N2CCCCC2)cc1 | 2 | -9 | 2 | 0 | 3224 | 4.0 | -2
Cn1c2ccccc2c2cc(C(=O)N3CCN(CCO)CC3)sc21 | 0 | -9 | 5 | 7 | ? | 2.1 | 2
O=C(Nc1ccc(Cl)cc1)O/N=C(\c1ccccc1)c1ccccn1 | nt | -19 | nt | nt | 4347 | nt | -2
COc1ccc(-c2nn(-c3ccccc3)cc2C=NNc2cccc(C(=O)O)c2)cc1 | 5 | nt | -5 | 4 | nt | 5.7 | nt
CC1(C)C(=O)Nc2ccccc2N1C(=O)COC(=O)C12CC3CC(CC(O)(C3)C1)C2 | -3 | -28 | 5 | 3 | 4196 | 3.7 | 4
O=C1c2ccccc2C(O)(c2ccccc2)N1c1ccncc1 (stereo not given) | 0 | -23 | 6 | 8 | 3824 | 1.9 | -19
COc1ccc(Nc2nc(N)c([N+](=O)[O-])c(N3CCCC3)n2)cc1 | -10 | -20 | -1 | 8 | 3713 | 9.6 | 2
CCOC(=O)CSc1nc2cc3c(cc2cc1C)OCO3 | 13 | -28 | 3 | -5 | 4606 | 10 | 4
Cc1cc(C)n2nc(C(=O)N/N=C/c3cccs3)nc2n1 | nt | -20 | nt | nt | 4711 | nt | 3
COc1cccc(NC(=O)C2CSC3(C)CCC(=O)N23)c1 (stereo not given) | 3 | -28 | 10 | -4 | nt | 1.3 | -10
Cc1ccc(N2C(=S)NC3c4cc(Cl)ccc4OC2(C)C3C(=O)N(C)C)cc1 (stereo not given) | 2 | -15 | 1 | 1 | 2917 | 4.2 | -4
CCOC(=O)c1c(N=Cc2cc([N+](=O)[O-])ccc2O)sc(C)c1C | -9 | nt | -3 | -3 | nt | 15 | nt
CC1=N/C(=C\c2ccccc2Cl)C(=O)O1 | -4 | -7 | 4 | 2 | 5711 | 3.4 | -1
CCC1CCCN1Cn1cnc2c([nH]c3ccc(C)cc32)c1=O (stereo not given) | 1 | -31 | -2 | 2 | 9005 | 0.8 | 1
CCN(CC)S(=O)(=O)c1ccc(C(=O)OCC(=O)N2CCN(C(=O)c3ccco3)CC2)cc1 | -2 | -10 | nt | nt | 4081 | 1.5 | -11
CN(CC(=O)Nc1ccc(F)c(F)c1F)C(=O)Cc1ccc(S(=O)(=O)N2CCOCC2)s1 | 5 | -12 | 3 | 0 | 3643 | 3.6 | nt
CC1CCCN(C(=O)CCS(=O)(=O)Cc2ccccc2)C1 (stereo not given) | 3 | -8 | -3 | -3 | 16402* | 2.7 | 10
COc1ccc(S(=O)(=O)N2CCC(C(=O)NCCC(=O)NCc3ccncc3)CC2)cc1 | 2 | -19 | -4 | 8 | 5174 | 4.4 | -5
CC(=NOC(=O)c1c(-c2c(Cl)cccc2Cl)noc1C)c1cnccn1 | 4 | nt | 5 | 2 | nt | 4.1 | nt

Structures shown so far with a CF3 group, in the order listed:
SMILES | ugtP null kill | PrP UTR inh | Mtb hypoxia inh | Mtb hypoxia inh growth | Autofluor counter | Sa RN4220 lethal | BJeLR viability
COc1ccc(Cl)cc1NC(=O)C(C)OC(=O)Cn1cc(C(F)(F)F)ccc1=O (stereo not given) | -2 | -18 | 27* | 62* | 8759 | 1.5 | nt
CC(=O)O/N=C(\N)c1cnn2c(C(F)(F)F)cc(C(F)(F)F)nc12 | nt | -11 | nt | nt | 5348 | nt | -4

Five records picked at random from those above:
SMILES | ugtP null kill | PrP UTR inh | Mtb hypoxia inh | Mtb hypoxia inh growth | Autofluor counter | Sa RN4220 lethal | BJeLR viability
CCCCOc1ccc(CSCCN=C(N)N)cc1 | 100* | -16 | 4 | -1 | 2010 | 21 | 0
Cc1nc2ccn(Cc3ccccc3)c(=O)c2cc1C(=O)N1CCN(c2ccc(F)cc2)CC1 | 11 | -11 | 12 | 4 | 4476 | 1.8 | 7
CC(=O)N1c2ccc(S(=O)(=O)N3CCCCC3)cc2CC1C(=O)Nc1ccc(C)cc1 (stereo not given) | -1 | 5 | 3 | 7 | 5876 | 0.9 | -10
COc1ccc(Cl)cc1C(=O)OCC(=O)NCc1cccs1 | 1 | 3 | 3 | 7 | 3881 | 1.2 | nt
COc1cc(C(=O)N2CCC(NC(=O)C(Cc3ccccc3)NC(C)=O)CC2)cc(OC)c1OC (stereo not given) | 8 | -5 | 5 | -2 | 15794 | 1.7 | -1

Next part
SMILES | ugtP null kill | PrP UTR inh | Mtb hypoxia inh | Mtb hypoxia inh growth | Autofluor counter | Sa RN4220 lethal | BJeLR viability
CCC1NC(=S)NC(C)=C1C(=O)c1ccccc1 (stereo not given) | 13 | -20 | 13 | 5 | 4591 | 5.5 | -12
CC(=O)C1=C(C)Nc2ncnn2C1c1ccccc1 (stereo not given) | 2 | -12 | 7 | 9 | 3640 | 6.2 | 1
N#CC1=C(N)N(c2ccccc2)C(c2ccco2)C1(C#N)C#N (stereo not given) | 0 | -3 | 2 | 9 | 3385 | 9.7 | 6
CCCC(=O)Nc1c2c(nn1-c1ccc(C)cc1C)CSC2 | -1 | -19 | 2 | 1 | 7581 | 12 | 4
